NPYLR7 agonist: mosquito NPYLR7 agonism; AID 1259423; activation, % at 10 µM; hit rate 0.15% among 270,000; HEK293T NPYLR7/Galpha15, GCaMP6s calcium fluorescence; in the data active = activation above about 40%;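 also: 0% = vehicle and 100% = reference agonist at the receptor; some compounds past the cut are filed as inactive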
NPYLR7 agonist max-min: also measured in NPYLR7 agonist; calls as there; activation, %; measured here: Max-Min RFU normalised activation; some inactives read as strong as hits;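 span of the calcium signal over five minutes; 0% = vehicle and 100% = native peptide agonist; compound fluorescence can raise it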
* = called active by the depositor; & = joins results of further samples. A portion of the library; count on the stated rates, not on these rows.

compound | NPYLR7 agonist | NPYLR7 agonist max-min
C#C[C@]1(O)CC[C@H]2[C@@H]3CCC4=C(CCC(=O)C4)[C@H]3CC[C@@]21C | -2.9 | -7.0
Cc1ccc(OCCN2CCC2(C)C(=O)NCCCN2CCCC2=O)cc1 (stereo unspecified) | 0.0 | -4.2
CC1C(=O)N(c2ccc3c(c2)CCC3)CCN1S(=O)(=O)c1ccc(F)cc1 (stereo unspecified) | -2.6 | -1.2
COc1ccc(NC(=O)c2cc(C3CCCCN3C(=O)C3CCCCC3)on2)c(C)c1 (stereo unspecified) | -0.1 | -1.4
O=C(O)c1cccnc1CN(Cc1ccccc1)[C@@H]1CCCC[C@H]1O | -5.9 | -13.7
Cc1cc(C(=O)O)sc1C(N)C(=O)O (stereo unspecified) | -16.5 | -24.1
CC1(C)C[C@H]2C[C@@H](O)[C@H](N3CCN(c4ccc(C#N)cc4)CC3)[C@]2(O)CO1 | 1.3 | 9.6
Cc1cccc(C(=O)N(Cc2csc(COc3ccccc3)n2)C(C)C)c1 | 15.2 | 17.5
Nc1cc(N)c(C(=O)O)cc1C(=O)O | 8.8 | 4.2
CC(C)c1cc(C2CCN(C(=O)C(C)n3ccnc3C(C)C)CC2)[nH]n1 (stereo unspecified) | -3.4&3.5 | 8.7&3.5

Entries of single compounds, looked up by structure. Order of screens: NPYLR7 agonist	NPYLR7 agonist max-min
Record of `Nc1cc(N)c(C(=O)O)cc1C(=O)O` → 8.8	4.2
Record of `CC1(C)C[C@H]2C[C@@H](O)[C@H](N3CCN(c4ccc(C#N)cc4)CC3)[C@]2(O)CO1` → 1.3	9.6
Record of `O=C(O)c1cccnc1CN(Cc1ccccc1)[C@@H]1CCCC[C@H]1O` → -5.9	-13.7
Record of `Cc1cccc(C(=O)N(Cc2csc(COc3ccccc3)n2)C(C)C)c1` → 15.2	17.5
Record of `CC1C(=O)N(c2ccc3c(c2)CCC3)CCN1S(=O)(=O)c1ccc(F)cc1` (stereo unspecified) → -2.6	-1.2

(list continues)
compound | NPYLR7 agonist | NPYLR7 agonist max-min
CCCc1ccccc1N1C(=O)CSC1c1ccc(NC(=O)c2ccccc2C)cc1 (stereo unspecified) | -1.0 | 6.9
Cc1cccc(NC(=O)CC2CSc3nc4c(cnn4-c4ccccc4)c(=O)n32)n1 (stereo unspecified) | 2.0 | -1.4
CC(C)CNC(=O)C1(C)CCCN1C(=O)Cc1cccc2ccccc12 (stereo unspecified) | 6.1 | 1.9
CCOC(=O)C1CCN(C(c2ccc(Cl)cc2)C2Sc3nc(C)nn3C2=O)CC1 (stereo unspecified) | 0.9 | -2.4
COc1cc(=O)n(-c2ccc(C)cc2)nc1C(=O)N1CCCc2ccccc21 | 10.7 | 3.8
COCCn1c(=O)c2c(nc3n2CCN3c2cccc(OC)c2)n(C)c1=O | 3.7 | 1.5
COc1cc(C=NNC(=O)CCN2CCN(C)CC2)ccc1O | -1.7 | -5.3
Cc1ccc(C(=O)NCCc2nnc3ccc(SCC(=O)c4ccc(Cl)cc4)nn23)cc1 | 2.3 | -6.9
Nc1cc(-c2ccc(Cl)cc2)nn1-c1ccc(C(=O)N2CCC(O)(Cc3ccccc3)CC2)cc1 | -6.1 | -10.6
O=C(c1ccc(Cl)cc1)N1CCc2ccccc2C1c1ccccc1Cl (stereo unspecified) | 19.0 | 11.8

Grouped by structure, those above with a Cl atom
compound | NPYLR7 agonist | NPYLR7 agonist max-min
CCOC(=O)C1CCN(C(c2ccc(Cl)cc2)C2Sc3nc(C)nn3C2=O)CC1 (stereo unspecified) | 0.9 | -2.4
Cc1ccc(C(=O)NCCc2nnc3ccc(SCC(=O)c4ccc(Cl)cc4)nn23)cc1 | 2.3 | -6.9
Nc1cc(-c2ccc(Cl)cc2)nn1-c1ccc(C(=O)N2CCC(O)(Cc3ccccc3)CC2)cc1 | -6.1 | -10.6
O=C(c1ccc(Cl)cc1)N1CCc2ccccc2C1c1ccccc1Cl (stereo unspecified) | 19.0 | 11.8

Remaining list, next part.
compound | NPYLR7 agonist | NPYLR7 agonist max-min
Cc1ccc(NC(=O)CN2CCC(C(=O)NCCOc3ccc(F)cc3)CC2)c(C)c1 | -1.9 | -3.5
CCOC(=O)c1cc(-c2cccc(NC(=O)c3ccc(OC)cc3)c2)n(-c2cccc(C)c2)n1 | 22.3 | 7.7
CC(C)CNC(=O)CN(C)C(=O)c1csc(Nc2cc(Cl)ccc2Cl)n1 | 2.7 | 0.4
O=C(c1c(F)cccc1Cl)N1CCOC(COCc2ccccc2F)C1 (stereo unspecified) | 7.6 | 11.4
Cc1ccc(CN(CCc2ccccc2)C(=O)CN(CCN2CCCCC2)C(=O)Nc2cccc(F)c2)o1 | -1.9 | 3.9
Cc1cc(C(=O)N2CC[C@H](N(C)C)C2)c2cccc(C)c2n1 | 6.1 | 2.8
N#Cc1cccc(C(=O)N2CCOC(COCc3ccccc3F)C2)c1 (stereo unspecified) | 27.7 | 17.3
CCOC(=O)C1CCCN(C(=O)c2cccc(CSc3nc(C)c(C)c(N(C)CCc4ccc(OC)c(OC)c4)n3)c2)C1 (stereo unspecified) | -5.7 | -1.8
COc1ccc(-c2nnc3ccc(SCC(=O)Nc4cc(C)cc(C)c4)nn23)cc1OC | 0.4 | 9.6
C=C(C)Cn1c(N2CCN(Cc3cccc4ccccc34)CC2)nc2c1c(=O)[nH]c(=O)n2C | 3.0 | 45.1
CC(C)(C)c1cc(N2CCN(Cc3ccc4c(c3)OCO4)CC2)nc(SCc2ccc(C(=O)N3CCCC3)cc2)n1 | 9.9 | 10.5
COC(=O)C1=C(C)N(C)C(C)=C(C(=O)OC)C1c1ccccc1OC | 19.2 | 17.0
COCC(C)Nc1nc2ccccc2o1 (stereo unspecified) | 1.4 | -2.3
COc1ccc(-c2cc(NC(=O)c3ccc(F)cc3F)n(-c3ccc(C)cc3)n2)cc1 | 9.0 | -1.3
COc1ccc(N2C(=O)C3C4CC5C(OC2(C(C)C)C53)C4O)cc1 (stereo unspecified) | 1.1 | -2.7
CC(OC(=O)Cn1cnc2ccccc2c1=O)C(=O)N(C)c1ccccc1 (stereo unspecified) | 5.7 | 0.9
CCCc1c(C)nn(-c2ccc(C(=O)NCCOC)cc2)c1C | 9.6 | 1.9
CSc1cccc(-n2nnc(C(=O)OCc3ccccc3F)c2C)c1 | 19.3 | 16.5
O=C(CCc1ccc2c(c1)OCO2)NC1CCc2[nH]c3cc(Cl)cc(Cl)c3c2C1 (stereo unspecified) | 35.7 | 20.5
C[C@H](C(=O)NCCN(C)C)N1Cc2ccc(-c3ccc(C#N)cc3)nc2C1=O | 9.3 | 23.3
CCCNC(=O)Cn1cc(OC)c(=O)cc1CN1CCCCCC1 | 2.6 | 1.1
CC(C)(C)C(=O)NCCC(=O)N1CCC(Nc2ccccc2)C1 (stereo unspecified) | 0.0 | -2.4
Cc1ccc(NCN2C(=O)c3ccccc3C2=O)nc1 | 5.8 | 5.5
COCc1cc(CN(C)Cc2cc3n(n2)CCCNC3)n[nH]1 | 0.7 | -6.1
COc1ccc(-c2oc3cc(O[C@H]4O[C@H](CO)[C@@H](O)[C@H](O)[C@H]4O)c(OC)c(O)c3c(=O)c2OC)cc1O | -11.1 | -14.2
O=C(CNC(=O)Nc1ccc(-n2cccn2)nc1)NC1CCCCC1 | 1.2 | 2.2
Cc1nnc(NC(=O)c2ccc(OC(C)C)cc2)s1 | -7.8 | -7.5
COc1cc(N=c2ccccn2C)cc(OC)c1OC | 0.3 | -1.5
Cc1ccccc1C(=O)NC(C(=O)N1CCCC1)C1CCN(C(=O)NC(C)C)CC1 (stereo unspecified) | 9.0 | 15.2
O=c1[nH]c(=O)n(C2C[C@@H](O)[C@@H](CO)O2)cc1F (stereo partly specified) | -9.9 | -15.3
O=C(/C=C\c1ccc([N+](=O)[O-])cc1)N(Cc1cccnc1)c1nc2c(F)cccc2s1 | -22.3 | -22.2
Cc1ccc(NC(=O)CCn2nc3ccccn3c2=O)cc1F | 10.5 | 5.3
COc1ccc2cc(CN3CCCN(c4ccncc4)CC3)c(=O)[nH]c2c1 | 4.6 | 2.2
Cc1ccc(C)c(-c2csc(NC(=O)C34CC5CC(CC(C5)C3)C4)n2)c1 | -7.0 | -12.3
Clc1ccc2nc(CSc3ncnc4sc5c(c34)CCCC5)cn2c1 | -4.5 | 2.7
Cc1cc(C)cc(CN2CC(c3ccccn3)C2)c1 | 22.2 | 7.5
Cc1cccc(NC(=O)c2cc(Oc3ccc([N+](=O)[O-])cc3F)n(C)n2)c1 | 20.6 | 14.7
N#CC(C(=O)C(F)(F)F)c1nc2ccccc2s1 (stereo unspecified) | 1.3 | -1.2
CCOC(=O)c1sc(N(C)C(=O)c2ccn(C)c(=O)c2)nc1C | 1.7 | -10.1
O=C(Nc1ccc(F)cc1)c1cc(-c2ccccc2Cl)nc2cc(-c3ccccc3)nn12 | 20.0 | 31.1
O=c1c2c(-c3ccccc3)ccnc2[nH]n1-c1ccccc1 | -2.4 | -3.7
O=C(NC(c1ccc2c(c1)OCO2)c1ccccn1)C1CCN(CCOc2ccc(Cl)cc2Cl)CC1 (stereo unspecified) | 5.7 | -5.3
O=c1[nH]c(=S)[nH]c2sccc12 | 2.2 | 3.2
CCSc1nnc(NC(=O)c2cc([N+](=O)[O-])ccc2Cl)s1 | -1.1 | -0.8
O=c1nc(N2CCCCC2)ccn1C(N=C(c1ccccc1)N1CCCCC1)=C(Cl)Cl | -2.9 | 31.2
CCS(=O)(=O)Oc1cccc(CN(CCOC)C(=O)Nc2ccc(Cl)c(Cl)c2)c1 | 7.2 | 20.2
Cc1ccccc1NC(=O)CC(=O)N(C)C1CCN(C)C1 (stereo unspecified) | 1.3 | -1.8
O=C(c1ccco1)N(CCN1CCOCC1)c1nc2ccc(Cl)cc2s1 | 18.3 | 13.1
Cc1oc(-c2cc(Cl)cc(Cl)c2)c(C)c1-c1nn2c(C)nnc2s1 | 2.1 | 2.2
CSCCCNC(=O)c1ccc(-c2cccc(C(F)(F)F)c2)s1 | 14.3 | 10.3

Following part.
compound | NPYLR7 agonist | NPYLR7 agonist max-min
CN(Cc1ccc(Sc2nncn2C)o1)C1Cc2ccccc2C1 | -6.5 | -14.1
CCC(C)NC(=O)CN1C(=O)NC(C)(c2cccc(Br)c2)C1=O (stereo unspecified) | -5.9 | -9.1
CCCCCn1c2ccccc2c2nc3cc(F)ccc3nc21 | -14.6 | -25.8
Cc1ccc(S(=O)(=O)N(Cc2ccccc2C)C(=O)N2CCN(C)CC2)cc1 | 1.0 | -0.2
N#Cc1ccc(NC(=O)CCN2CCCC2c2ccsc2)cc1 (stereo unspecified) | 1.1 | 2.5
O=c1c2ccccc2[nH]c(=S)n1C1CCN(Cc2ccccc2)C1 (stereo unspecified) | 0.0 | -2.6
COc1ccc(-n2nc(-c3ccc(OC)cc3OC)cc2C(=O)NCCc2ccccn2)cc1 | -0.2 | 6.3
CSc1ccc(C(NS(=O)(=O)c2ccccc2F)c2cccc(Cl)c2Cl)cc1 (stereo unspecified) | -4.5 | -12.4
O=C(CN(C(=O)/C=C/c1ccc([N+](=O)[O-])cc1)C1CC1)N(CCc1c[nH]c2ccccc12)Cc1ccccc1 | -2.2 | 0.6
O=C(NC(c1ccc(F)cc1)c1cnccn1)C1CCN(CCOc2ccccc2)CC1 (stereo unspecified) | 4.6 | -4.4
O=C(NCCn1ncc2c(=O)n(Cc3cccc([N+](=O)[O-])c3)cnc21)c1ccc(F)cc1 | 2.4 | 0.8
Cc1cccc(NC(=O)C(C)n2ncccc2=O)c1C (stereo unspecified) | 0.0 | -1.6
O=S(=O)(c1ccc(F)cc1F)N1CCN(c2nc3ccccc3nc2-c2ccccc2)CC1 | 3.3 | 4.5
CC(C)Oc1cccc(C(=O)C2CCCN(C(=O)c3cc(Cl)ccc3F)C2)c1 (stereo unspecified) | 1.9 | -1.1
O=C(C1CC1)N(Cc1ccccc1)Cc1c(-c2ccccc2)noc1N1CCCC1 | 2.4 | 0.0
CCOC(=O)C1=C(C)Nc2ncnn2C1c1ccc(O)cc1 (stereo unspecified) | -3.0 | 2.1
COC(=O)c1ccc(/C=[N+](/[O-])C2(C)CCCCC2=O)cc1 (stereo unspecified) | -0.4 | -7.6
Cc1cccc(-n2ncc(Oc3cccc(Cl)c3)c(Nc3cccc(C(=O)NC4CC4)c3)c2=O)c1 | 7.5 | 8.4
CN1CCC(CN2CCN(C(c3ccccc3)c3ccccc3)CC2)CC1 | 18.9 | 16.8
